VDR inhibitor: vitamin D3 receptor (human) inhibition; Potency, µM, without a hit: max response, negative = inhibition, most hits filed as inhibitors; actives 0.93% (n = 400,000); P11473; AID 504847; VDR-SRC2-3 peptide fluorescence polarization, 2 h; active = well fitted inhibition curve with a large enough effect; inconclusive = small, poorly fitted or top-dose-only effect, or another doubt; inactive = no such curve, though single readings can be large or run the other way; also: series mostly up to about 120 µM
Target sequence (P11473 whole entry, looked up): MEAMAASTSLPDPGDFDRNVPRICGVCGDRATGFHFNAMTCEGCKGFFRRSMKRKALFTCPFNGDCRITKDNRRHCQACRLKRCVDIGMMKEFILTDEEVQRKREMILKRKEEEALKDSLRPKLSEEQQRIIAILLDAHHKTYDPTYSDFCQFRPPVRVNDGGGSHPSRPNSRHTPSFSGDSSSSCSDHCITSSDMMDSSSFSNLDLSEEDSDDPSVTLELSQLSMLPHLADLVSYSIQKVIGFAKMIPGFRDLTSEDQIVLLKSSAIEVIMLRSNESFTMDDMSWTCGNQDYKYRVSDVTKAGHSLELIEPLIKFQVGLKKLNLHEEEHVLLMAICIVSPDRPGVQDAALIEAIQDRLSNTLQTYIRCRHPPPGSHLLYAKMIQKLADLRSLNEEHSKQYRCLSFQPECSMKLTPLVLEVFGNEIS
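After 23 nl compound addition and a short centrifugation, plates sat for 2 hours at ambient temperature; polarization of fluorescence then indicated loss of VDR binding to peptide SRC2-3.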
* hit, by the source's call; ? = inconclusive; & = joins results of further samples. % is scaled to controls: 0 for no effect and ±100 for the full control effect; potency is read from the fitted curve at half-maximal effect. These rows are one share of the data (hit frequency here may not be typical).

Start of the data: the first 5 compounds, to show the layout:
VDR inhibitor	mol
-4%	Cc1ccc(C)c(S(=O)(=O)Nc2ccc(O)c(Sc3ncn[nH]3)c2)c1
5%	CC(C)N(C(=O)[C@H]1C[C@H](CC(=O)NCc2cccc(C(F)(F)F)c2)C(=O)N2CCc3c([nH]c4cc(CCC(=O)N(C)C)ccc34)[C@]12C)C(C)C
?	CCN1C/C(=C\c2cccc([N+](=O)[O-])c2)C(=O)/C(=C/c2cccc([N+](=O)[O-])c2)C1
9%	CCCOc1ccc(C(C)=O)cc1CSCCC#N
-4%	O=C1NC(=O)C2(CCCCC2C2CCCCC2)N1 (stereo not drawn)

This part in full, from the start:
VDR inhibitor	mol
-4%	Cc1ccc(C)c(S(=O)(=O)Nc2ccc(O)c(Sc3ncn[nH]3)c2)c1
5%	CC(C)N(C(=O)[C@H]1C[C@H](CC(=O)NCc2cccc(C(F)(F)F)c2)C(=O)N2CCc3c([nH]c4cc(CCC(=O)N(C)C)ccc34)[C@]12C)C(C)C
?	CCN1C/C(=C\c2cccc([N+](=O)[O-])c2)C(=O)/C(=C/c2cccc([N+](=O)[O-])c2)C1
9%	CCCOc1ccc(C(C)=O)cc1CSCCC#N
-4%	O=C1NC(=O)C2(CCCCC2C2CCCCC2)N1 (stereo not drawn)
12%	O=S(=O)(NCCOc1ccc(F)cc1)c1ccc2c(c1)OCCO2
-6%	Cc1ccccc1CN1C(=O)Nc2ccccc2C(=O)N1C(C)(C)C
-9%	CCOC(=O)N1CCN(C(=O)CSc2ccccc2)CC1
-2%	Cc1cccc(Nc2nc(Nc3cccc(C)c3)nc(N3CCOCC3)n2)c1
-8%	Cc1ccc(S(=O)(=O)N2CCOCC2)cc1C(=O)OCC(=O)N(Cc1ccccc1)C(C)C
14%	CCc1cc2c(cc3c(=O)n(CC(=O)NCCc4ccc(OC)c(OC)c4)ncn32)s1
-4%	CC(=O)c1ccc(NC(=O)CN(C)S(=O)(=O)c2cccc3nsnc23)cc1
-5%	Cc1cc(C)cc(C(=O)N(Cc2nc(-c3ccc(Cl)cc3)no2)C(C)C)c1
-1%	COc1ccc(C)cc1NS(=O)(=O)c1c(C(=O)N2CCCCCC2)c(C)n(C)c1C
-2%	CC1CC(C)(C)CC2(C1)NC(=O)N(CC(=O)Nc1ccc(N3CCCCC3)cc1)C2=O (stereo not drawn)
-7%	CCOc1c(Br)cc(/C=N\NC(=O)c2ccccc2)cc1OC
26%	Cc1ccc(-c2noc(CNC(=O)c3ccc(Br)o3)n2)cc1
-11%	O=c1oc(Nc2ccc(F)cc2)nc2ccccc12
1%	Cc1ccc(/C=N/NC(=O)C2CC(=O)N(c3ccccc3)C2)s1 (stereo not drawn)
-10%	S=c1[nH]nc(C2CCCCC2)n1/N=C/c1ccc(Cl)cc1
0%	O=C(O)c1ccc(N2C(=O)CC(N3CCN(c4cccc(Cl)c4)CC3)C2=O)cc1 (stereo not drawn)
-11%	C=CCn1c(SCC(=O)Nc2nncs2)nnc1-c1ccco1
-6%	Cc1cc(C)c(C(=O)N2CCCC(C(=O)c3cc(F)ccc3F)C2)o1 (stereo not drawn)
1%	CN1/C(=C/c2cc[n+](C)c3ccccc23)C=Cc2ccccc21
0%	O=C(NCC(c1cccnc1)N1CCc2ccccc2C1)C(=O)Nc1ccc(Cl)cc1 (stereo not drawn)

The results go on:
VDR inhibitor	mol
7%	CC(NC(=O)Nc1cc(Cl)ccc1Cl)c1c(-n2cccc2)sc2c1CCCC2 (stereo not drawn)
4%	N#Cc1cccn1-c1nccs1
21%	COc1ccccc1CN1CCC(CNC(=O)c2cnn(-c3cccc(Cl)c3)c2C2CCN(C(=O)OC(C)(C)C)CC2)CC1
-14%	Oc1ccccc1C1=Nc2ncnn2C(c2ccccc2)C1 (stereo not drawn)
8%	COc1cc([N+](=O)[O-])ccc1NC(=O)CN(C)C
-6%	O=C(COC(=O)/C=C/c1ccccc1[N+](=O)[O-])NC(=O)NC1CCCC1
-3%	COc1ccc(C2c3[nH]c4ccccc4c3CC3C(=O)N(CCc4ccc(OC)c(OC)c4)CC(=O)N32)cc1 (stereo not drawn)
9%	O=C(O)c1ccc(-c2nc3ccccc3[nH]2)cc1
-14%	CC(=O)NN1C(=O)/C(=C/c2ccc(C(C)C)cc2)SC1=S
0%	N#CCCN(C(=O)COC(=O)c1nc(Cl)ccc1Cl)c1ccccc1
-8%	CCN1CCN(c2ccc(S(=O)(=O)N3CCOCC3)cc2NC(=O)C(C)Oc2ccc(Cl)cc2)CC1 (stereo not drawn)
13%	O=C(NCC1CCCO1)c1c(O)c2c([nH]c1=O)CCCC2 (stereo not drawn)
-4%&6%	CCCC(=O)c1cc2c(cc1NC(=O)c1ccccc1F)OCCO2
-11%	COc1cccc2cc(C(=O)NC(C)C3CCCO3)c(=O)oc12 (stereo not drawn)
7%	CC(C)N(C)C1CCN(S(=O)(=O)c2ccc3[nH]c(=O)ccc3c2)CC1
?	COc1ccc(Nc2ccc([N+](=O)[O-])cn2)cn1
-6%	CCCC1N2CC3([N+](=O)[O-])CN1CC([N+](=O)[O-])(C2)C3(C)C (stereo not drawn)
12%	CC1CCc2c(nc3ncnn3c2Nc2ccc(OC(F)(F)F)cc2)C1 (stereo not drawn)
4%	CCOc1cc(N2CCOCC2)c(OCC)cc1NC(=O)c1cc(C)nc2ccccc12
-20%	CC(C)(C)CC(=O)NC(=S)Nc1ccccc1[N+](=O)[O-]
5%	COC(=O)Cc1c(C)c2ccc(OCC(=O)N3CCCC(C)C3)c(C)c2oc1=O (stereo not drawn)
-9%	CC(On1nnc2ccccc21)C(=O)N1CCN(Cc2ccccc2)CC1 (stereo not drawn)
3%	O=C(NNC(=S)NC(=O)c1ccccc1)c1ccc(O)cc1
-3%	CN(CC(=O)Nc1ccccc1C(=O)N1CCCC1)S(=O)(=O)c1ccc(Br)cc1
8%	O=C1C2CCCCN2C(=O)N1CCN1CCN(c2ccc(F)cc2)CC1 (stereo not drawn)

Later entries
VDR inhibitor	mol
-9%	O=C(CSc1nnc(-c2ccncc2)o1)N1CCCC1
-5%	CCOC(=O)Cc1csc(NC(=O)COc2ccc(N(C)S(=O)(=O)c3cccs3)cc2)n1
4%	O=c1n(-c2cccc(Cl)c2)c(=O)n2n1CCC2
-3%	COc1ccc(CNC(=O)CS(=O)Cc2nc(-c3ccc(C)cc3)oc2C)cc1 (stereo not drawn)
18%	Cc1ccc(C)c(N2CCN(C(=O)c3ccc(CS(=O)Cc4ccc(Cl)cc4)o3)CC2)c1 (stereo not drawn)
-12%	O=C(COc1ccc(F)cc1)Nc1nc(-c2ccccn2)cs1
-6%	CSc1nnc(C2CCN(CC(=O)Nc3ccccc3N3CCOCC3)CC2)n1C
-7%	C(=Nc1ccc(Nc2ccccc2)cc1)c1ccc2ccccc2c1
-19%	COc1ccc(S(=O)(=O)NCC(=O)N(CC(=O)NCc2ccco2)Cc2ccc(F)cc2)cc1
-3%	N#Cc1ccccc1S(=O)(=O)Nc1ccc2c(c1)OCCO2
-4%	O=C(Nc1ccc(Cn2cccn2)cc1)c1ccc(COc2cccc(Br)c2)cc1
11%	CNc1nc(Nc2ccccc2)nc(OCC(F)(F)F)n1
22µM*	C=CCOc1ccc(C(c2c(O)nc(SC)[nH]c2=O)c2c(O)nc(SC)[nH]c2=O)cc1
-4%	N=c1oc2ccc(Br)cc2cc1C(=O)NCc1ccc(F)cc1
0%	O=C(Oc1ccc(Cl)c2cccnc12)N1CCOCC1
3%	COCCCNC(=O)Nc1cc(C(=O)NCc2ccc(OC)cc2)ccc1N1CCCC1
-7%	CCN(CC(=O)Nc1ccc(Cl)c(C(F)(F)F)c1)CC(=O)NC1CCS(=O)(=O)C1 (stereo not drawn)
-20%	CN(CC1CCCO1)S(=O)(=O)c1ccc(C(=O)Nc2nc3cc4c(cc3s2)OCO4)cc1 (stereo not drawn)
1%	Cn1c(=O)c(-c2ccc(Cl)cc2)nc2cnc(N3CCOCC3)nc21
-24%	COc1ccccc1CCNS(=O)(=O)c1cc2c3c(c1)CCN3C(=O)CC2
11%	CC(SCc1ccccc1)C(=O)NC1CCCC1 (stereo not drawn)
6%	CCc1ccc(S(=O)(=O)c2nnn3c2nc(N2CCC(C(N)=O)CC2)c2cc(Cl)ccc23)cc1
7%	OC(COc1ccccc1Br)CN1CCNCC1 (stereo not drawn)
3%	CCOc1cc2c(cc1OC)C(NC(=O)C(F)(F)F)CC2=O (stereo not drawn)
-4%	CCOC(=O)c1sc(NC(=O)CN2CC(C)OC(C)C2)nc1C (stereo not drawn)

Four records drawn at random from those above:
VDR inhibitor	mol
3%	CCOc1cc2c(cc1OC)C(NC(=O)C(F)(F)F)CC2=O (stereo not drawn)
-5%	CCOC(=O)Cc1csc(NC(=O)COc2ccc(N(C)S(=O)(=O)c3cccs3)cc2)n1
-20%	CN(CC1CCCO1)S(=O)(=O)c1ccc(C(=O)Nc2nc3cc4c(cc3s2)OCO4)cc1 (stereo not drawn)
18%	Cc1ccc(C)c(N2CCN(C(=O)c3ccc(CS(=O)Cc4ccc(Cl)cc4)o3)CC2)c1 (stereo not drawn)

New compounds follow.
VDR inhibitor	mol
?	O=C(O)CCN1C(=O)c2ccc(NC(=O)CSc3ccccc3)cc2C1=O
3%	O=C(c1ccco1)n1nc(-c2ccc(Cl)cc2)nc1NCc1ccco1
3%	CC(C)(C)OC(=O)N1CCN(C(=O)OCC2c3ccccc3-c3ccccc32)CC1C(=O)O (stereo not drawn)
-10%	COc1ccc(C(C)=O)cc1COc1ncnc2ccccc12
-21%	CCOc1cc(/C=N/NC(=O)c2ccccn2)ccc1OC(=O)c1ccc(F)cc1
6%	CCOC(=O)N1CCC(NC(=O)CCN2C(=O)COc3ccccc32)CC1
10%	CNC(=O)c1nc(C)n(-c2cc(Cl)cc(Cl)c2)n1
4%	COC(=O)C(CO)NC(=O)C(C)NC(=O)CNC(=O)OCc1ccccc1 (stereo not drawn)
-16%	CN(CCOC(=O)/C=C/c1ccco1)Cc1ccccc1
0%	CCc1nnc(NC(=O)c2cc(-c3ccncc3)nc3ccccc23)s1
-13%	CC1CCCN(C(=O)c2ccc3c(c2NCCO)C(=O)c2ccccc2C3=O)C1 (stereo not drawn)
-6%	Cc1ccc(NC(=O)CSC2=NN3CCCC(=O)N=C3S2)c(C)c1
8%	O=C(O)C1CCN(C(=O)NC2CCCCC2)CC1
-14%	Cc1ccc2c(c1)C(c1ccc(F)cc1)N(C(=O)COc1ccc(Cl)cc1Cl)CC(=O)N2 (stereo not drawn)
13%	CC(=O)NC(Cc1ccccc1F)C(=O)NC1CCN(c2ncccc2[N+](=O)[O-])CC1 (stereo not drawn)
1%	CC(C)C(=O)NC(=S)NCC(=O)c1ccccc1
7%	COc1ccc(C(=O)C[N+]2(C)CCOCC2)cc1
5%	CCOc1ccc(C(=O)Nc2cc(-c3nc4ccccc4[nH]3)ccc2C)cc1[N+](=O)[O-]
-5%	Cc1nn(CC(C)C)c(Cl)c1C(=O)N(C)CC(=O)Nc1c(Cl)cccc1Cl
14%	Cc1cccc(-n2ccc(=O)c(C(=O)Nc3ccc(S(=O)(=O)Nc4nccs4)cc3)n2)c1
-2%	COc1ccc(C(C(=O)NCC2CCCO2)N(C(=O)Cn2nnc3ccccc32)c2ccc(NC(C)=O)cc2)cc1 (stereo not drawn)
3%	NS(=O)(=O)c1ccc(CCNC(=O)CSc2nc3ccccc3c(=O)n2CCN2CCOCC2)cc1
-14%	O=C1NCN(CCO)CN1
-14%	CCc1cc(-c2[nH]ncc2-c2nc3ccccc3n2C)c(O)cc1O
-4%	Cc1cc(C)nc(NCC(O)CNc2ccccc2Cl)n1 (stereo not drawn)

Three neighbouring entries from above, quoted:
VDR inhibitor	mol
-14%	O=C1NCN(CCO)CN1
-14%	CCc1cc(-c2[nH]ncc2-c2nc3ccccc3n2C)c(O)cc1O
-4%	Cc1cc(C)nc(NCC(O)CNc2ccccc2Cl)n1 (stereo not drawn)

More records
VDR inhibitor	mol
15%	CCCSc1ccc([C@@H]2[C@H]3C(=O)N(CC)C(=O)[C@H]3[C@]3(C(=O)OC)CCCCN23)cc1OC
-16%	CCC1CCc2sc(C(=O)NNC(=O)c3ccncc3)cc2C1 (stereo not drawn)
2%	CC(C)(C)n1nc2c(c1NC(=O)COc1ccccc1F)CS(=O)(=O)C2
10%	Cc1cccc(-n2ccnc2SCC(=O)Nc2nc3ccccc3s2)c1
-15%	O=C(COC(=O)/C=C/c1ccc(C(F)(F)F)cc1)Nc1ccc2[nH]c(=O)[nH]c2c1
-1%	Cc1ccc(N2C(N)=C(C#N)C(c3cccnc3)C3=C2CCCC3=O)cc1 (stereo not drawn)
-7%	COc1ccccc1CN1C[C@@H]2C[C@@H](c3ccc(Cl)cc3)N3CCC[C@@]23C1=O
-20%	CC1=CC(C)(C)N(C(=O)CNC2CCCC2)c2cc(C)ccc21
-10%	O=C(O)c1ccc(CN(c2ccccn2)S(=O)(=O)c2ccccc2)cc1
-22%	O=C1Nc2ccc(F)cc2C12Nc1ccccc1-c1nnc(SCc3ccccc3F)nc1O2 (stereo not drawn)
2%	CCc1ccccc1NC(=O)c1ncoc1-c1ccco1
-10%	Cc1ccccc1NC(=O)CSc1nc(=O)n(CCN2CCOCC2)c2c1CCCC2
-8%	CC(=O)c1ccc(N=Nc2c(C)[nH][nH]c2=O)cc1
-29%	CCOc1cc(/C=C2\C(=N)N3N=C(N4CCCCC4)SC3=NC2=O)ccc1OC(=O)c1ccco1
7%	Cc1cc(NC(=O)c2cc(C)on2)no1
-4%	COc1cccc(/C=C2\SC(=S)N(CC(=O)N(C)C3CCS(=O)(=O)C3)C2=O)c1 (stereo not drawn)
?	CC[C@@]1(c2cccc(C)c2)C(=O)N(C(=O)OC)N1C(=O)OC
4%	Cc1ccccc1OCC(=O)N(Cc1ccc(N(C)C)cc1)CC1CCCO1 (stereo not drawn)

High-throughput results deposited in PubChem BioAssay by National Center for Advancing Translational Sciences (NCATS).
